Screening data from PubChem BioAssay.
TRPV1 potentiator: human TRPV1 potentiation | TRPV1-expressing cells, Fluo-8 calcium influx, capsaicin EC20 potentiation; host cell line not named in the record; control for the full effect not named in the record | 320,000 tested, 0.02% active | Q8NER1 | potentiation, % at 8.33 µM; active means potentiation above 80%; inconclusive means 30% to 80%; inactive means below 30%; further: 0% is about no effect
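Fluo-8 calcium influx in TRPV1-expressing cells, kinetic read (ex 480/em 520 nm). Compound added and read 3 min for agonist activity, followed by capsaicin at EC20 final and 2 min further read for enhancement.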
Menin MLL FP FL: displaces fluorescein MLL peptide from human menin. 290,000 tested, under 10 active. Fluorescence polarization, fluorescein-MLL peptide displacement from menin. FP activity change, % at 61.4 µM. AID 1766; inconclusive = falling polarisation curve, or a change in total fluorescence; inactive = total fluorescence flat and polarisation flat or rising; no compound was filed as active; the % refers to the polarisation; negative = inhibition;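 further: % of control where 0% means no effect; inhibitors lower the polarisation; unlabelled MLL peptide was the positive control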
gsp ag: agonists of gsp mutant (McCune-Albright syndrome). 340,000 tested, 0.13% active. Potency, µM (series often up to 76.9 µM), without a hit: at the top dose activation (cAMP increase), hits mostly activators. AID 624287. gsp mutant cells, cAMP HTRF, 30 min; control for the full effect not named in the record; active = well fitted activation curve with a large enough effect; inconclusive = small, poorly fitted or top-dose-only effect, or another doubt; inactive = no such curve, though single readings can be large or run the other way; cell line not stated here;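 further: phosphodiesterase inhibitor Ro 20-1724 added with compounds to block cAMP breakdown; potency means the concentration at half of the fitted maximal effect; nearly all actives have a fitted effect of over 60% in size; about a fifth of the inactives were tested at one dose only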
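Cells stably selected in G418 were plated at 2000/well, grown 16-24 hr, then given compounds in DMSO with the PDE inhibitor […] (300 uM solution added) for 30 min at 37C; cAMP was read by HTRF.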
Sfp inh: inhibitors of Bacillus subtilis Sfp phosphopantetheinyl transferase; 310,000 tested, 3.5% active; Potency, µM, for the others: max response, negative = inhibition, most hits filed as inhibitors; Biochemical Sfp PPTase activity, qHTS; active means well fitted inhibition curve with a large enough effect; inconclusive means small, poorly fitted or top-dose-only effect, or another doubt; inactive means no such curve, though single readings can be large or run the other way;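 further: the enzyme is Sfp with the accession as filed and its product quenches rhodamine fluorescence; potency means the concentration at half of the fitted maximal effect; 0% = enzyme reaction without inhibitor and -100% = no enzyme wells; top concentration of the series not given in the record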
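Fluorescence-quenching assay with 15 nM Sfp, 5 uM rhodamine-CoA and 12.5 uM BHQ-2-labelled ybbR peptide in pH 7.6 Hepes/MgCl2 buffer. Enzyme was pre-incubated with compound for 15 min at room temperature. Rate was taken from the 30-min fluorescence change (525/598 nm).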
D2 PAM: human D2 receptor positive allosteric modulation; DiscoveRx D2 beta-arrestin cells, luminescence, 90 min; 100% = 57 uM dopamine signal; 360,000 tested, 0.23% active; potentiation, % (no concentration beside the values); AID 624464; P14416; active = potentiation of 50% or more; inconclusive = 30% to 50%; inactive = 30% or less;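 further: compound concentration not given in the record; tested on top of an EC20 dose of dopamine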
Target sequence (P14416 whole entry, looked up): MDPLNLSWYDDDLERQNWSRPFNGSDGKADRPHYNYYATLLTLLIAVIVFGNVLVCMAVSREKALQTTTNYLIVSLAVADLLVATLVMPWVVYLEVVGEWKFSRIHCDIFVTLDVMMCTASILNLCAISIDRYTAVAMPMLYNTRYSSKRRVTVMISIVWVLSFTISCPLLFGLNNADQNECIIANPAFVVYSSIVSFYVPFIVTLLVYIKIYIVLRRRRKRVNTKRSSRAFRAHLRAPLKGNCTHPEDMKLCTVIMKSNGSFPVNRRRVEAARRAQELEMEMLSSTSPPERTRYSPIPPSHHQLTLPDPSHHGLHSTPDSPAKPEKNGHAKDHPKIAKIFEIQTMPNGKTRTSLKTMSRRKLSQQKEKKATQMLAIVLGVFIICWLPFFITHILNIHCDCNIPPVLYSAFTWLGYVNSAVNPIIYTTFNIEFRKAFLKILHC
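PathHunter D2 cells, attached overnight at 37 deg C, received compound in DMSO plus dopamine at EC20 (50 nM final) for 90 min at 37 deg C. Beta-arrestin recruitment was read as luminescence after 1 h with detection reagent at ambient temperature.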
gsp antagonist: antagonists of gsp mutant (McCune-Albright syndrome); gsp-mutant cells, cAMP HTRF, 30 min; control for the full effect not named in the record; Potency, µM (titrated, usually from 76.9 µM), for the others: at the top dose activity change, negative = inhibition, usual class: inhibitors; 340,000 tested, 0.4% active; active = falling curve of any shape with a large fitted effect; inconclusive = falling curve, mostly with a smaller effect; inactive = flat or rising curve; cell line not stated here;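 further: intracellular cAMP measured with PDE inhibitor Ro 20-1724 present during compound exposure; potency means the concentration at half of the fitted maximal effect; on the % scale 0 is the no-effect control and ±100 the full control effect; nearly all actives have a fitted effect of over 65% in size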
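HTRF cAMP read-out (cAMP-d2 plus anti-cAMP antibody-K in lysis buffer, 30 min RT). Before lysis, cells are exposed to compounds with […] for 30 min at 37C in DPBS containing Ca/Mg, BSA and Tween 20.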
ClpP mod: qHTS Assay for Activators of ClpP | purified B. subtilis ClpP, FRET peptide cleavage, 20 min | Potency, µM (top dose mostly 57.5 µM), for inactives: at the top dose activity change, negative = active | 340,000 tested, 1.9% active; active = well fitted falling curve with a large enough effect; inconclusive = small, poorly fitted or top-dose-only effect; inactive = no such curve, though single readings can be large or run the other way; further: potency means the concentration at half of the fitted maximal effect; the source files actives as falling curves though it sought activators and does not explain the sign; nearly all actives have a fitted effect of over 65% in size; many hits overshoot -100%
Target sequence (P80244 whole entry, looked up): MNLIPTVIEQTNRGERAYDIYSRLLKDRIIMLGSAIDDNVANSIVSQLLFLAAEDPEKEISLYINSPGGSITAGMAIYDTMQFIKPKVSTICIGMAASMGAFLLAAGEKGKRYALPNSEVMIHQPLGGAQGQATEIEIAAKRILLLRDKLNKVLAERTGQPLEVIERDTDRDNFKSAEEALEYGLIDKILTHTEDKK
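FRET quenching reversal measured ClpP activation: 10 microg/mL B. subtilis ClpP at pH 8 with the FRET-FV decapeptide, read at 430 nm after 320 nm excitation. The 20-min minus 0-min signal was scaled between DMSO/no-enzyme wells and ADEP (5.8 microM final).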
* marks the source's active call; other numbers are inactive results; ? = inconclusive; / = not tested or not shown; [ ] = remark or other dose.

Values run as follows: TRPV1 potentiator	Menin MLL FP FL	gsp ag	Sfp inh	D2 PAM	gsp antagonist	ClpP mod
O=C(NC(NC1CCS(=O)(=O)C1)C(Cl)(Cl)Cl)c1cccc(Cl)c1 (stereo not given)
  3	2.2	20%	6%	-3	-4%	-2.5%
Cc1sc(NC(=O)CN2CCCC2)nc1-c1ccc2c(c1)CCN2C(=O)c1cccc(F)c1
  6	3.7	12%	-4%	2	-22%	/
COc1cc(NC(=O)C(c2ccccc2)c2ccccc2)c(C(=O)O)cc1OC
  10	-0.1	18%	3%	7	-14%	-7.1%
Cc1nn(-c2ccc(Cl)cc2)c(=O)c2ccccc12
  -2	-1.5	-4%	2%	-12	-20%	0.0%
CCN1C(=O)[C@H]2[C@@H](c3ccc(-c4ccc5c(c4)OCO5)cc3)N[C@@](Cc3ccccc3)(C(=O)OC)[C@H]2C1=O
  /	/	2%	/	-10	-6%	3.6%
CCN(CC)CCCN=Cc1c(-c2ccccc2)[nH]n(-c2nc3ccccc3s2)c1=O
  6	0.4	0%[15.4 µM]	-3%	-3	-27%	/
O=C(CCn1c(=S)[nH]c2cc3c(cc2c1=O)OCO3)N1CCc2ccccc2C1
  0	-1.7	/	-4%	/	/	/
COc1ccc(-c2cccc([C@H]3[C@@H]4C=CC[C@@H](C)[C@@H]4C(=O)N3Cc3ccccc3)c2)cc1
  /	0.2	/	-10%	-6	-5%	-9.7%
COC(=O)c1ccc(COc2ccccc2/C=C(\C#N)C(=O)Nc2ccccc2C)cc1
  -1	/	-5%	?	4	-23%	1.5%
C/C(N)=C(/C#N)C(=O)COC(=O)COc1ccc(Cl)cc1C
  -20	0.2	7%	14%	0	-4%	-3.1%
Oc1c(C(c2ccccn2)N2CCCCC2)cc(Cl)c2cccnc12 (stereo not given)
  -2	-3.1	?	5%	-19	2%	1.5%
Cc1cc(C(=O)CN2CCCC2)c(C)n1-c1ccc(Cl)cc1
  16	-0.4	-3%[15.4 µM]	13%	3	19%	/
CCOc1ccc(NS(=O)(=O)c2cc(C(=O)N3CCN(C(C)=O)CC3)ccc2Cl)cc1
  4	/	-7%[15.4 µM]	5%	-8	-6%	-2.1%
Cc1ccc(-c2cnc3cc(C)nn3c2)cc1
  4	-5.6	0%[15.4 µM]	9%	2	-2%	/
CCOC(=O)N1CCN(S(=O)(=O)N2CCCC(C(=O)NCCCN3CC(C)CC(C)C3)C2)CC1 (stereo not given)
  1	1.0	16%	23%	-8	11%	-1.0%
COc1ccc(OC)c(Nc2c3ccccc3nc3ccccc23)c1
  -4	-15	-5%[15.4 µM]	-18%	-3	-4%	/
CC(C)C(C)(C#N)NC(=O)CN1C(=O)NC2(CCCc3ccccc32)C1=O (stereo not given)
  -6	/	?	2%	-10	14%	-0.5%
COc1cc(C(=O)NNc2nc3cc4c(cc3s2)OCO4)cc(OC)c1OC
  5	4.2	-54%[inhibitor]	20µM*	0	-4%	-0.4%
COC(=O)CC1=C(c2ccc([N+](=O)[O-])cc2)CCC1=O
  /	/	-15%	/	-6	-12%	/
COc1ccc(CC2(CO)CCN(S(=O)(=O)c3cccc4cccnc34)CC2)cc1
  8	0.9	8%	13%	0	5%	0.6%
CC[C@]12c3[nH]c4ccc(Cl)cc4c3CCN1C(=O)[C@@H](CC(=O)NCCCn1ccnc1)C[C@@H]2C(=O)N1CCN(C(=O)C2CC2)CC1
  /	/	/	/	-2	4%	2.1%
COc1ccc(Nc2ccc(S(=O)(=O)N3CCCCCC3)cc2[N+](=O)[O-])cc1
  3	2.1	5%	0%	-6	-8%	-2.1%
CCOC(=O)c1c(C)[nH]c(C(=O)CSc2nc(C)cc(C)n2)c1C
  -8	8.2	0%	-16%	1	-15%	/
CCOC(=O)CSc1ccc(S(=O)(=O)N(C)C2CCCCC2)cc1[N+](=O)[O-]
  16	1.7	10%	22%	6	-20%	1.9%
CCOCC(=O)Nc1ccccc1C(=O)N1CCOCC1
  10	0.9	16%	17%	0	5%	/
CC(C)n1nc(C(=O)NC2CCCCCC2)c2ccccc2c1=O
  -8	/	-59%[inhibitor]	/	-2	0%	-1.2%
O=C(O)c1ccccc1/C=N/NC(=S)NC1CCCCC1
  -5	1.6	-40%[inhibitor]	20%	-4	-5%	-8.0%
N#C/C(=C/c1ccc(-c2ccc([N+](=O)[O-])cc2)o1)c1nnc(N2CCOCC2)n1-c1ccccc1
  /	/	-4%	/	27	-1%	-1.3%
CCOc1cc(CNCc2ccccn2)cc(Cl)c1OCC
  8	-2.7	?	3%	-28	1%	-3.2%
CCCCC(=O)Nc1ccc2c3c(cccc13)CC2
  -9	2.1	16%	7%	-6	-1%	-7.3%
CCCS(=O)(=O)c1nc(S(=O)(=O)c2ccc(C)cc2)c(NCCCn2ccnc2)s1
  -4	/	?	8%	-13	11%	1.1%
Cn1c(=O)c(C(=O)c2ccccc2)c(O)c2ccccc21
  /	/	15%[15.4 µM]	/	4	-1%	/
O=CNC1(c2ccccc2)CCCCC1
  /	/	-22%	/	-10	1%	-4.3%
CC1CCN(C(=O)c2cc(N3C(=O)C4C5CCC(C5)C4C3=O)ccc2Cl)CC1 (stereo not given)
  -2	1.6	/	5%	/	/	/
CCOC(=O)C1=C(COC(=O)CCc2ccc(F)cc2)NC(=O)NC1C (stereo not given)
  -12	/	17%	/	3	4%	0.4%
COc1ccc(N2C(=O)CC(Sc3nc(C)cc(C)c3C#N)C2=O)cc1 (stereo not given)
  0	0.1	-17%	-7%	-10	13%	0.0%
CCn1cc(Cl)c(C(=O)Nc2ccc(OC)c(OC)c2)n1
  4	1.8	-9%	4%	-2	-8%	/
COc1ccc(Cc2nnc(NC(=O)c3cccs3)s2)cc1
  -3	-8.0	0%	16%	-3	19%	-13%
CC(C)NC(=O)COC(=O)c1ccc(Cl)c(S(N)(=O)=O)c1
  2	-1.8	1%[15.4 µM]	22%	-3	9%	/
Cc1c(NC(=O)c2ccc(Br)s2)c(=O)n(-c2ccccc2)n1C
  4	-5.7	-15%[15.4 µM]	19%	-9	-14%	-0.1%
CC1C(=O)N(Cc2cn(Cc3ccco3)nn2)CCS(=O)(=O)N1Cc1ccc(-c2ccc(Cl)cc2)cc1 (stereo not given)
  /	/	-123%	/	-2	/	0.1%
Cc1cc(NC(=O)COC(=O)C2COc3ccccc3O2)no1 (stereo not given)
  9	-3.1	11%[15.4 µM]	5%	-24	-10%	-2.1%
CCOc1ccc(-c2cc(CCCC(=O)Nc3cc(OC)ccc3OC)no2)cc1
  8	-2.3	22%	8%	3	-31%	2.7%
COc1cccc(NC(=O)CN(C)C(=O)/C=C/c2cc(OC)ccc2OC)c1
  22	-2.0	?	12%	-31	6%	?
CN(C)Cc1c(C(C)(C)O)[nH]c2ccc(C(F)(F)F)cc12
  /	/	/	/	-13	2%	-6.6%
Cc1ccc(-c2nnc(OCC3CCCO3)c3ccccc23)cc1 (stereo not given)
  -33	1.8	4%[15.4 µM]	10%	-6	-31%	/
O=S(=O)(Cc1ccccc1)N1CCN(c2ccccc2)CC1
  -3	0.7	1%	7%	0	0%	1.2%
COc1ccccc1OCCCC(=O)NCc1ccco1
  -3	6.6	-1%[15.4 µM]	-5%	0	-23%	/
Cc1ccc(C)c(N2CN(Cc3ccco3)CNC2=S)c1
  0	2.0	-17%	18%	-9	8%	-1.9%
Cc1c(-c2nc(-c3ccc(C(C)(C)C)cc3)no2)n(C)oc1=O
  15	5.3	-22%	?	3	-3%	/
CCOc1ccc(/C=C2\SC(=S)N(NS(=O)(=O)c3ccccc3)C2=O)cc1OC
  17	-1.1	-5%	-24%	-14	-28%	1.1%
COc1ccc(SCc2noc(C(=O)NCC3CCCO3)c2C(=O)O)cc1 (stereo not given)
  4	1.1	/	13%	-50	?	0.9%
COc1ccc(NC(=O)N2CCCC2C(=O)Nc2ccccc2)cc1 (stereo not given)
  0	3.1	0%	14%	23	1%	0.7%
Cc1ccc(C(=O)OCC(=O)N(C)c2ccccc2)c(C)c1
  4	-6.0	-6%[15.4 µM]	1%	-12	18%	/
CCOC(=O)C1(CCOc2ccccc2)CCN(Cc2cccc3nonc23)CC1
  -14	-3.3	?	6%	1	-11%	?
N#Cc1cc(C(=O)c2cc(Br)ccc2O)cn(C2CCCCC2)c1=O
  -4	15	23%	-4%	30	?	3.2%
CC(C)Cc1nc(SCc2cccnc2)c2c(=O)n(C)c(=O)n(C)c2n1
  -11	-1.8	6%[15.4 µM]	-22%	-6	-10%	/
CCN(CC)S(=O)(=O)c1ccc(N2CCOCC2)c(NC(=O)CC(C)(C)C)c1
  6	8.3	-23%	?	-1	-14%	2.1%
Cc1ccc(CC2S/C(=N/c3ccccn3)NC2=O)cc1 (stereo not given)
  11	-1.4	13%	-2%	-11	8%	-3.5%
CNC(=S)N(CCCO)Cc1cc2cc3c(cc2[nH]c1=O)OCO3
  -14	2.0	6%	15%	-5	9%	3.7%

Next section.
Values run as follows: TRPV1 potentiator	Menin MLL FP FL	gsp ag	Sfp inh	D2 PAM	gsp antagonist	ClpP mod
CCn1cc(SCC(=O)N2CCc3ccccc32)c2ccccc21
  -14	4.0	4%	-11%	-4	?	1.7%
CCCCn1c2nc3ccccc3nc2c2c(=O)n(C(C)CC)cnc21 (stereo not given)
  ?	-0.6	-3%	11%	-13	-6%	?
C/C(=N\Nc1ccccc1[N+](=O)[O-])c1ccc(N2CCOCC2)cc1
  1	2.8	9%[15.4 µM]	16%	6	2%	/
CN(C)S(=O)(=O)c1cccc(NC(=O)CSc2cccc3cccnc23)c1
  14	-19	1%[15.4 µM]	-2%	-13	6%	/
CCN(CC(=O)Nc1cc(Cl)ccc1C)C(=O)C1CC1
  7	/	-28%	/	-3	10%	-13%
COc1ccccc1-c1cc(C(=O)N/N=C/c2cccs2)c2ccccc2n1
  -10	2.0	-7%	1%	-32	0%	-13%
